High-throughput results as filed in PubChem.
BJeLR viab HTS – lowers viability of BJeLR cells. BJeLR fibroblasts viability, CellTiterGlo ATP luminescence, 48 h; HRASV12, hTERT and SV40 LT/ST transformed. viability loss activity score, % (concentration not given with the values). 0.64% of 30,000 active; in the data active means viability loss activity score above about 50%; about a fifth of its hits are not listed in these tables;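 further: higher score means fewer live cells and less ATP luminescence; stock transfer was 50 or 100 nL into about 30 µL; 0% = vehicle wells and 100% = a reference killing control; one replicate is shown; the record names a cut of 85%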
A1 inhib – blocks A1 activity | MEF A1-2A-BIM cells, caspase-Glo luminescence, 3 h; percent of clofoctol signal, DMSO as zero | caspase activation, % (test concentration not listed) | 0.51% of 21,000 active | AID 2241;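 active means most replicate scores above 10, or exactly half above 10 with mean activity above 10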;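 further: effector caspase 3 and 7 activity cleaving a DEVD luciferin substrate; 50 nL library stock added to about 30 µL; numbers are from one replicate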
Numbers without * were called inactive; x = not tested or not shown. Only part of the results is shown. The share of hits here may be higher or lower than overall.

Compound: CCCN(CCC)c1ncnc2c1cnn2-c1ccc(OC)cc1
- BJeLR viab HTS = -0.4
- A1 inhib = -1.7

Compound: C[C@@H]1CN([C@H](C)CO)C(=O)c2cc(NC(=O)c3ccncc3)ccc2O[C@@H]1CN(C)C
- BJeLR viab HTS = 5.8
- A1 inhib = 0.1

Compound: COC(=O)c1cccc2[nH]ncc12
- BJeLR viab HTS = 0.2
- A1 inhib = -0.7

Compound: C[C@@H]1O[C@H]2Oc3c(-c4ccc(O)cc4)oc4cc(O)c(c(O)c4c3=O)-c3cc(ccc3O)/C=C\C(=O)OC[C@H]3O[C@@H](O[C@H]([C@H]1O)[C@H]2O)[C@H](O)[C@@H](O)[C@@H]3O
- BJeLR viab HTS = -6.2
- A1 inhib = -0.1

Compound: CCOC(=O)c1csc(-c2cn(C(C)C)c(=O)n(Cc3ccccc3)c2=O)n1
- BJeLR viab HTS = 0.7
- A1 inhib = -0.6

Compound: CCn1c(C)nc2cc(S(=O)(=O)C(F)(F)F)ccc21
- BJeLR viab HTS = 7.8
- A1 inhib = -0.8

Compound: CC1(C)CC(=O)C(c2nc3ccc(C(=O)c4ccccc4)cc3[nH]2)=C(O)C1
- BJeLR viab HTS = -9.6
- A1 inhib = 0.1

Compound: Cc1cc(C)n2c(Br)c(CSc3nc4ccccc4o3)nc2n1
- BJeLR viab HTS = -0.4
- A1 inhib = 0.1

Compound: COc1ccc(CNC(=O)Cc2cccs2)cc1OC
- BJeLR viab HTS = 1.3
- A1 inhib = 0.4

Compound: Cc1noc(C)c1NC(=O)Nc1cccc2c1O[C@H](CN(C)C(=O)NC(C)C)[C@@H](C)CN([C@@H](C)CO)C2=O
- BJeLR viab HTS = 1.0
- A1 inhib = x

Compound: COc1cc(OC)c2c(c1)ncc1c(C)nn(-c3ccccc3)c12
- BJeLR viab HTS = -1.6
- A1 inhib = x

Compound: C[C@H]1CN([C@@H](C)CO)C(=O)c2cccc(NC(=O)Nc3ccc4c(c3)OCO4)c2O[C@H]1CN(C)Cc1ccc(-c2ccccc2)cc1
- BJeLR viab HTS = 3.5
- A1 inhib = x

Compound: Cc1cc(-c2nc(-c3ccc(Cl)cc3)cs2)no1
- BJeLR viab HTS = 5.6
- A1 inhib = 0.5

Compound: CCOc1nc(NC2CCCC2)nc(N2CCC(C)CC2)n1
- BJeLR viab HTS = -4.2
- A1 inhib = -0.4

Compound: C[C@@H]1CN([C@@H](C)CO)C(=O)c2cc(NC(=O)C3CC3)ccc2O[C@H]1CN(C)Cc1ccc(Oc2ccccc2)cc1
- BJeLR viab HTS = -0.4
- A1 inhib = 0.0

3 entries already listed, ordered by the value under A1 inhib, descending:
molecule | A1 inhib
C[C@@H]1CN([C@H](C)CO)C(=O)c2cc(NC(=O)c3ccncc3)ccc2O[C@@H]1CN(C)C | 0.1
COC(=O)c1cccc2[nH]ncc12 | -0.7
CCn1c(C)nc2cc(S(=O)(=O)C(F)(F)F)ccc21 | -0.8

Additional records follow.
Compound: COC(=O)c1ccc(S(=O)(=O)NN2CCOCC2)n1C
- BJeLR viab HTS = 5.5
- A1 inhib = 0.0

Compound: O=C(Oc1ccc(N(Cc2cccs2)C2=NS(=O)(=O)c3ccccc32)cc1)c1ccccc1
- BJeLR viab HTS = 1.0
- A1 inhib = 1.6

Compound: CCOC(=O)N1CCN(c2ccc3ccccc3n2)CC1
- BJeLR viab HTS = 5.9
- A1 inhib = -3.0

Compound: CCOc1ccccc1NC(=S)NCc1cccn1C
- BJeLR viab HTS = -7.9
- A1 inhib = 0.4

Compound: COc1ccc(CN2C(=O)c3ccc(F)cc3C2=O)cc1
- BJeLR viab HTS = 3.7
- A1 inhib = x

Compound: COc1ccc2c(c1)c(CC(=O)Nc1ncccc1C)c(C)n2C(=O)c1ccc(Cl)cc1
- BJeLR viab HTS = 1.5
- A1 inhib = 0.1

Compound: C[C@@H]1CN([C@@H](C)CO)C(=O)c2cccc(NS(=O)(=O)c3ccccc3)c2O[C@@H]1CN(C)C
- BJeLR viab HTS = 0.6
- A1 inhib = x

Compound: CC(C)NC(=O)N(C)C[C@H]1Oc2ccc(NC(=O)Cc3ccccc3)cc2C(=O)N([C@H](C)CO)C[C@@H]1C
- BJeLR viab HTS = 4.9
- A1 inhib = 0.0

Compound: C[C@@H]1CN([C@@H](C)CO)C(=O)c2cc(NC(=O)Cn3cnnn3)ccc2O[C@@H]1CN(C)C(=O)Nc1ccc2c(c1)OCO2
- BJeLR viab HTS = -0.8
- A1 inhib = 0.2

Compound: Cc1noc(C)c1S(=O)(=O)Nc1ccc2c(c1)C(=O)N([C@H](C)CO)C[C@@H](C)[C@H](CN(C)C)O2
- BJeLR viab HTS = 1.7
- A1 inhib = -0.5

Compound: CCOC(=O)N1CCN(CC(O)Cn2c(=O)c3c(ncn3C)n(C)c2=O)CC1 (centres undefined)
- BJeLR viab HTS = -1.3
- A1 inhib = -0.7

Compound: COc1ccc(/C=C/C(=O)O[C@@H]2[C@@H](OC(=O)/C=C/c3ccc(OC)cc3)[C@H](C)O[C@@H](O[C@H]3[C@@H]4C=CO[C@@H](O[C@@H]5O[C@H](CO)[C@@H](O)[C@H](O)[C@H]5O)[C@@H]4[C@@]4(CO)O[C@@H]34)[C@@H]2OC(C)=O)cc1
- BJeLR viab HTS = -3.5
- A1 inhib = -1.0

Compound: COc1ccc(CN(C)C[C@@H]2Oc3ccc(NS(=O)(=O)c4ccc(OC)cc4)cc3C(=O)N([C@@H](C)CO)C[C@@H]2C)cc1
- BJeLR viab HTS = -0.9
- A1 inhib = -0.5

Compound: C[C@@H]1CN([C@@H](C)CO)C(=O)c2cc(NC(=O)CCN3CCOCC3)ccc2O[C@H]1CN(C)CC1CCCCC1
- BJeLR viab HTS = 4.0
- A1 inhib = -0.8

Compound: O=C(COc1ccc2ccccc2c1)Nc1cccc(-c2nc3ncccc3o2)c1
- BJeLR viab HTS = 2.9
- A1 inhib = 0.1

Compound: C[C@@H]1CN([C@H](C)CO)C(=O)c2cccc(NC(=O)Nc3ccc4c(c3)OCO4)c2O[C@H]1CN(C)S(=O)(=O)c1ccc(Cl)cc1
- BJeLR viab HTS = -0.5
- A1 inhib = x

Compound: CNC[C@@H]1Oc2ccc(NC(=O)Nc3cccc4ccccc34)cc2C(=O)N([C@@H](C)CO)C[C@H]1C
- BJeLR viab HTS = 1.5
- A1 inhib = -0.5

Compound: CC(=O)OCC1=C[C@@H](O)[C@@H]2C=CO[C@@H](OC3OC(CO)C(O)C(O)C3O)[C@H]12 (some centres undefined)
- BJeLR viab HTS = -1.9
- A1 inhib = 0.5

Compound: O=c1[nH]nc(CSc2ccccn2)c2ccccc12
- BJeLR viab HTS = 1.1
- A1 inhib = -0.9

Compound: C[C@H]1CN([C@@H](C)CO)C(=O)c2cccc(NS(=O)(=O)c3cn(C)cn3)c2O[C@@H]1CN(C)Cc1ccc2c(c1)OCO2
- BJeLR viab HTS = 3.3
- A1 inhib = x

Compound: CC(C)(C)NC(=S)N1CCSCC1
- BJeLR viab HTS = -0.9
- A1 inhib = 0.8

Compound: COc1ccc(S(=O)(=O)Nc2cccc3c2O[C@@H](CN(C)C(=O)Nc2c(C)noc2C)[C@@H](C)CN([C@@H](C)CO)C3=O)cc1
- BJeLR viab HTS = -1.4
- A1 inhib = x

Compound: NNC(=O)CS(=O)Cc1cccc(C(F)(F)F)c1 (centres undefined)
- BJeLR viab HTS = -3.0
- A1 inhib = 0.3

Compound: Cc1cccc(-n2c(C)nc3cc(C(=O)NCc4ccc(F)cc4)ccc32)c1
- BJeLR viab HTS = -2.2
- A1 inhib = -0.7

Compound: CCC1CCCCN1C(=O)CSc1nc2c([nH]c3ccccc32)c(=O)n1-c1ccccc1 (centres undefined)
- BJeLR viab HTS = -9.2
- A1 inhib = x

Compound: C[C@@H]1CN([C@@H](C)CO)C(=O)c2cc(NC(=O)Nc3ccc(F)cc3)ccc2O[C@@H]1CN(C)Cc1ccc(C(=O)O)cc1
- BJeLR viab HTS = 2.1
- A1 inhib = 0.0

Compound: COc1ccccc1NC(=O)C1CC(=O)N(C)C(=Nc2ccccc2)S1 (centres undefined)
- BJeLR viab HTS = -3.8
- A1 inhib = 0.0

Compound: COc1ccc(S(=O)(=O)Nc2ccc3c(c2)C(=O)N([C@@H](C)CO)C[C@@H](C)[C@H](CN(C)CC2CC2)O3)cc1
- BJeLR viab HTS = 4.4
- A1 inhib = -0.8

Compound: O=c1[nH]nc(C(F)(F)F)n2cccc12
- BJeLR viab HTS = 3.2
- A1 inhib = 0.0

Compound: CC(C)(O)C1Cc2cc(CCc3cc(O)cc(O)c3)ccc2O1 (centres undefined)
- BJeLR viab HTS = -0.4
- A1 inhib = -0.7

15 structures from above, sorted by molar mass, rising.
Compound: CC(C)(C)NC(=S)N1CCSCC1
- BJeLR viab HTS = -0.9
- A1 inhib = 0.8

Compound: NNC(=O)CS(=O)Cc1cccc(C(F)(F)F)c1 (centres undefined)
- BJeLR viab HTS = -3.0
- A1 inhib = 0.3

Compound: CC(C)(O)C1Cc2cc(CCc3cc(O)cc(O)c3)ccc2O1 (centres undefined)
- BJeLR viab HTS = -0.4
- A1 inhib = -0.7

Compound: COc1ccccc1NC(=O)C1CC(=O)N(C)C(=Nc2ccccc2)S1 (centres undefined)
- BJeLR viab HTS = -3.8
- A1 inhib = 0.0

Compound: Cc1cccc(-n2c(C)nc3cc(C(=O)NCc4ccc(F)cc4)ccc32)c1
- BJeLR viab HTS = -2.2
- A1 inhib = -0.7

Compound: O=C(COc1ccc2ccccc2c1)Nc1cccc(-c2nc3ncccc3o2)c1
- BJeLR viab HTS = 2.9
- A1 inhib = 0.1

Compound: CCC1CCCCN1C(=O)CSc1nc2c([nH]c3ccccc32)c(=O)n1-c1ccccc1 (centres undefined)
- BJeLR viab HTS = -9.2
- A1 inhib = x

Compound: CNC[C@@H]1Oc2ccc(NC(=O)Nc3cccc4ccccc34)cc2C(=O)N([C@@H](C)CO)C[C@H]1C
- BJeLR viab HTS = 1.5
- A1 inhib = -0.5

Compound: COc1ccc(S(=O)(=O)Nc2ccc3c(c2)C(=O)N([C@@H](C)CO)C[C@@H](C)[C@H](CN(C)CC2CC2)O3)cc1
- BJeLR viab HTS = 4.4
- A1 inhib = -0.8

Compound: C[C@@H]1CN([C@@H](C)CO)C(=O)c2cc(NC(=O)CCN3CCOCC3)ccc2O[C@H]1CN(C)CC1CCCCC1
- BJeLR viab HTS = 4.0
- A1 inhib = -0.8

Compound: C[C@@H]1CN([C@@H](C)CO)C(=O)c2cc(NC(=O)Nc3ccc(F)cc3)ccc2O[C@@H]1CN(C)Cc1ccc(C(=O)O)cc1
- BJeLR viab HTS = 2.1
- A1 inhib = 0.0

Compound: C[C@H]1CN([C@@H](C)CO)C(=O)c2cccc(NS(=O)(=O)c3cn(C)cn3)c2O[C@@H]1CN(C)Cc1ccc2c(c1)OCO2
- BJeLR viab HTS = 3.3
- A1 inhib = x

Compound: COc1ccc(CN(C)C[C@@H]2Oc3ccc(NS(=O)(=O)c4ccc(OC)cc4)cc3C(=O)N([C@@H](C)CO)C[C@@H]2C)cc1
- BJeLR viab HTS = -0.9
- A1 inhib = -0.5

Compound: COc1ccc(S(=O)(=O)Nc2cccc3c2O[C@@H](CN(C)C(=O)Nc2c(C)noc2C)[C@@H](C)CN([C@@H](C)CO)C3=O)cc1
- BJeLR viab HTS = -1.4
- A1 inhib = x

Compound: C[C@@H]1CN([C@H](C)CO)C(=O)c2cccc(NC(=O)Nc3ccc4c(c3)OCO4)c2O[C@H]1CN(C)S(=O)(=O)c1ccc(Cl)cc1
- BJeLR viab HTS = -0.5
- A1 inhib = x

Next section
Compound: Cc1cc(NC(=O)N(C)C)nn1-c1ccccc1
- BJeLR viab HTS = 2.6
- A1 inhib = 0.3

Compound: CC(C)N1C(=O)S/C(=C/c2cc(Br)c(OCC(=O)O)c(Br)c2)C1=O
- BJeLR viab HTS = -1.4
- A1 inhib = 0.5

Compound: COc1c2c(c(C)c3c1C(=O)OC3)OC1(C)CC(O)C3(O)C(C)(C)OC(=O)CCC3(C)C1C2 (centres undefined)
- BJeLR viab HTS = -2.6
- A1 inhib = -0.1

Compound: Cc1ccc(S(=O)(=O)N(C)C[C@@H]2Oc3c(NC(=O)c4ccncc4)cccc3C(=O)N([C@@H](C)CO)C[C@H]2C)cc1
- BJeLR viab HTS = -3.9
- A1 inhib = x

Compound: CC(C)NC(=O)Nc1ccc2c(c1)C(=O)N([C@@H](C)CO)C[C@H](C)[C@H](CN(C)Cc1ccccc1)O2
- BJeLR viab HTS = 1.7
- A1 inhib = 0.1

Compound: O=C(NCc1ccccc1)C1CCN(Cc2cnn(-c3ccccc3)c2-n2cccc2)CC1
- BJeLR viab HTS = 0.6
- A1 inhib = 0.2
